# A488 fluor = compound fluoresces in the A488 spectral region; 59,000 compounds, 0.1% hits; compound autofluorescence, A488 spectral region, dye equivalency; active compounds read high; max dye equivalency, M; active = above 10 nM dye equivalent; inconclusive = 1 to 10 nM; inactive = 1 nM or less; about half of its hits are not listed in these tables;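 further: highest value over a series up to 38 µM; compound alone in buffer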
#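 Autofluorescence read at ex 480/em 540 nm after 15 min RT in 100 mM Tris pH 8.0; compound signal normalized to A488 standard series on each plate, reported as dye-equivalent concentration at each test concentration.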
# Resorufin autofl = compounds fluorescent in resorufin spectral region | Compound fluorescence, resorufin region 547/598 nm, buffer; active compounds read high | max dye-equivalent concentration, M | 59,000 compounds, 0.04% hits | AID 588; active = above 10 nM dye equivalent; inconclusive = 1 to 10 nM; inactive = 1 nM or less; a few of its hits are not listed in these tables; further: highest value over a series up to 38 µM
#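 Dye-equivalent concentration values derive from comparing each well's 547/598 nm fluorescence against resorufin standards included on every plate. Incubation was 15 min at room temperature in 100 mM Tris, pH 8.0.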
# AID923 = qHTS Assay for Allosteric/Competitive Inhibitors of Caspase-1: Spectroscopic Profiling in AFC Spectral Region; 75,000 compounds, 1.1% hits; Potency, µM (series often up to 57.5 µM), inactives show at the highest dose fluorescence increase, hits mostly activators; AID 923, 2007; compound fluorescence, AFC spectral region (405/520 nm); almost no hit is shown here; active means well fitted activation curve with a large enough effect; inconclusive means small, poorly fitted or top-dose-only effect;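 further: potency means the concentration at half of the fitted maximal effect; 0% is about no effect; scaled to a free AFC standard on each plate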
#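 Baseline compound fluorescence (AFC region, 405 nm ex/520 nm em) taken from the intercept of kinetic reads with 50 nM caspase-1 and 5 uM Ac-WEHD-AFC; normalized to an on-plate AFC standard curve; compounds titrated up to 57 uM.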
# A647 autofl = compound fluoresces in the A647 spectral region | Compound fluorescence, A647 channel (570/671 nm), Tris buffer | 59,000 tested, under 10 active | max dye-equivalent concentration, M; active means above 1 µM dye equivalent; inconclusive means 0.1 to 1 µM; inactive means 0.1 µM or less;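 further: values scaled relative to a standard on each plate; highest value over a series up to 38 µM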
#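 Tris 100 mM pH 8.0; cpd + A647 stds pin-transferred; 15 min RT; CCD imager, ex 570/em 671. Output = A647-equivalent conc. per cpd conc.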
# TSHR agonist = agonists of human thyroid stimulating hormone receptor; Potency, µM (top dose mostly 57.1 µM), inactives show at the top dose activation, hits mostly activators; P16473; HEK293-CNG-TSHR cells (CNG channel as cAMP sensor), membrane potential dye, cAMP; 73,000 compounds, 0.48% hits; active = well fitted activation curve of enough size with the parental cells flat; inconclusive = any curve in the parental cells; inactive = parental cells flat and receptor cells flat or falling; further: potency means the concentration at half of the fitted maximal effect; % of control where 0% means no effect; weak receptor curves with flat parental cells got no call and are not listed
# Target sequence (P16473 whole entry, looked up): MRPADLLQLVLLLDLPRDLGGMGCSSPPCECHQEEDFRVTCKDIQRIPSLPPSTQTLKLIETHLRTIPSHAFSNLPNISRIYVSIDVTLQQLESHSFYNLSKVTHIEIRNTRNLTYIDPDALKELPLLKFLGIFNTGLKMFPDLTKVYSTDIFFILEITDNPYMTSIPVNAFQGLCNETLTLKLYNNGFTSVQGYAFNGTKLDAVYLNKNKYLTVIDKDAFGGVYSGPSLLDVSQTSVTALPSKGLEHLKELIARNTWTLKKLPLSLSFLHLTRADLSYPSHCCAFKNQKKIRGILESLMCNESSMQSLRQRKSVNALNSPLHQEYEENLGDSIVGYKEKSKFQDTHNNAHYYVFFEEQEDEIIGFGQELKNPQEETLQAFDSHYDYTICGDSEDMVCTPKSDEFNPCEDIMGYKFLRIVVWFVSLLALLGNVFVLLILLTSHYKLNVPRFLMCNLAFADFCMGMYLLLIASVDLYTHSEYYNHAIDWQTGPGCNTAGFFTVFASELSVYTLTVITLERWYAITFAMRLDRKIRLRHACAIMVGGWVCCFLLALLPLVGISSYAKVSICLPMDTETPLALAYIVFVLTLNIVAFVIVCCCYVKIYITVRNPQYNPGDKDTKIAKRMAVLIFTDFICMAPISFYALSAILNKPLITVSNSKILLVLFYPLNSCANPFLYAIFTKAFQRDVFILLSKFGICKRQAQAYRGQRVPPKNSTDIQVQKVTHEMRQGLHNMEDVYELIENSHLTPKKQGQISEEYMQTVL
#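 HEK 293 cells stably expressing TSHR and a cAMP-gated CNG channel; parental CNG-only cells as counterscreen. Cells preloaded 60 min with membrane potential dye plus 100 uM RO 20-1724, then compound 30 min; fluorescence read at 590 nm.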
# Numbers without * were called inactive; i = inactive; ? = inconclusive; . = not tested or not shown; & = joins results of further samples; [ ] = remark or other dose. This is a subset. The share of hits here may be higher or lower than overall.
SMILES,A488 fluor,Resorufin autofl,AID923,A647 autofl,TSHR agonist
CCn1ncc(Cl)c1C(=O)Nc1cc(Cl)ccc1Cl,i,i,1.7%,2.4e-09,?
O=C(c1ccccc1-c1ccccc1)N1CCCC1,i,i,-1.8%,5.2e-09,?
CCOC(=O)c1ccc(NC(=O)NCc2ccncc2)cc1,i,i,-0.4%,1.7e-08,3%
COc1ccc(OC)c(S(=O)(=O)N(C)CC(=O)Nc2cc(Cl)ccc2OC)c1,i,i,0.2%,4.3e-08,.
O=C(Cn1nc(Cc2cccnc2)c2ccccc2c1=O)N1CCN(C(=O)c2ccco2)CC1,.,.,0.2%,.,-3%
Cc1ccccc1-n1c(SCC(=O)N2CCN(c3ccccc3)CC2)nnc1-c1ccncc1,i,i,0.6%,6.1e-08,2%
Nn1c(COc2ccccc2)nnc1SCC(=O)O,i,i,-1.3%,1e-09,3%
CSc1ccc(-c2nnn(Cc3ccccn3)n2)cc1,i,i,0.5%,1.8e-08,9%
CCc1nc2ccccc2n(CCOCCn2c(=O)c(CC)nc3ccccc32)c1=O,i,i,2.4%,3.1e-08,-4%
O=C(CSc1nc2ccccc2c2nc3ccccc3n12)NCc1ccco1,i,i,-0.5%,1.8e-09,10%
c1ccc(Cn2ccnc2SCc2nnc(-c3ccccc3)o2)cc1,i,i,0.7%,1e-09,21%
CCOC(=O)c1c(NC(=O)c2cccs2)sc(C(=O)N2CCOCC2)c1C,i,i,0.2%,1e-09,?
O=C(CSc1nnnn1Cc1ccccc1)NCC(=O)c1ccccc1,i,i,1.0%,8.6e-09,11%
CCCCOCCCNC1=NCCCCC1,i,i,-0.8%,5.1e-09,-9%
CCOC(=O)C(Cc1ccccc1)NC(=O)Cn1nnc(-c2ccccc2)n1 (stereo not drawn),i,i,-1.0%,1.9e-08,3%[11.4 µM]
O=C(NCCC1=CCCCC1)C1CCCN(S(=O)(=O)c2cccc3cccnc23)C1 (stereo not drawn),.,.,-0.2%,.,?
C=C1[C@@H](C)C2[C@H](Cc3ccccc3)NC(=O)[C@]23OC(=O)CC[C@H](O)CCC[C@H](C)C/C=C/[C@H]3[C@@H]1O (stereo partly drawn),i,i,.,2.3e-09,.
CCCCn1nnc(NC(=O)c2sc3cc(Cl)ccc3c2Cl)n1,i,i,0.4%,3.5e-08,?
CCN(CCO)C[C@H]1CCC[C@H]2CCCC[C@@H]21,i,i,1.8%[11.5 µM],4.3e-08,4%[11.4 µM]
O=C(NCCN1CCN(c2ccccc2F)CC1)c1cccn2c(=O)c3ccccc3nc12,i,i,8.3%,4.8e-08,?
CC(C)c1ccccc1N1CC(C(=O)O)CC1=O (stereo not drawn),i,i,-4.6%,2.6e-09,-3%
COC(=O)Cc1c(C)c2ccc(OCC(=O)N3CCOCC3)cc2oc1=O,i,i,-0.2%,1e-08,4%
Cc1cc(C)c2c(c1)-c1c(ssc1=S)C(C)(C)N2C(=O)CSc1nncn1C,.,.,0.1%,.,5%[11.4 µM]
COc1ccc(CNC(=O)c2cc(-c3ccco3)on2)cc1,i,i,-0.7%,1.8e-09,0%
CO/N=C1/[C@H]2O[C@@H]2[C@@H](O)[C@H]2[C@H]1CCn1c(=O)n(-c3ccccc3)c(=O)n12,.,.,-1.4%[11.5 µM],.,-1%[11.4 µM]

# Limited to A647 autofl, for two of the compounds above:
smiles | A647 autofl
O=C(NCCN1CCN(c2ccccc2F)CC1)c1cccn2c(=O)c3ccccc3nc12 | 4.8e-08
CC(C)c1ccccc1N1CC(C(=O)O)CC1=O (stereo not drawn) | 2.6e-09

# Next section.
SMILES,A488 fluor,Resorufin autofl,AID923,A647 autofl,TSHR agonist
O=C(CN1CCOCC1)Nc1ncc(Br)cc1Br,i,i,-1.2%,1e-09,0%
COc1ccc(C(=O)n2nc(-c3ccc(C)cc3)nc2N)cc1OC,i,i,0.4%,4.2e-09,4%
C=COCCNC(=O)C1CC(=O)N(c2ccc(C)cc2)C1 (stereo not drawn),i,i,0.9%,2.5e-08,-1%
COc1ccc(Nc2cc(C)nc3nc(C)nn23)cc1Cl,.,.,-0.1%,.,1%
c1ccc(SCc2nc(-c3cccnc3)no2)cc1,i,i,-0.1%,2.7e-08,-14%
c1ccc(Cn2nnnc2CN2CCN(Cc3ccc4c(c3)OCO4)CC2)cc1,i,i,-1.0%,7.4e-09,?
Cc1ccnc2nc(C(=O)N3CCN(S(=O)(=O)c4ccccc4)CC3)nn12,i,i,0.6%,1.3e-08,-4%
O=C(CCCC(=O)OCC1CCCO1)OCC1CCCO1 (stereo not drawn),i,i,-0.5%,6.2e-09,1%
O=C(C1CCC1)N1CCc2cc(S(=O)(=O)Nc3ccc4c(c3)OCO4)ccc21,i,i,-2.2%,1.9e-08,12%
O=C(CCNC(=O)Cn1ccc2ccccc2c1=O)NCCCN1CCN(c2ccccc2F)CC1,i,i,-1.0%,3e-08,-8%[11.4 µM]
CC(=O)Nc1cc(-c2nn(CC(=O)N3CCCCC3)c(=O)c3ccccc23)ccc1N1CCOCC1,i,i,0.6%,3.1e-08,6%
CC(C)C(c1nnnn1Cc1ccccc1)N1CCc2ccccc2C1 (stereo not drawn),i,i,2.4%,1e-09,.
O=C1CC(c2ccco2)CC(O)=C1C=NCCN1CCNCC1 (stereo not drawn),.,.,-3.4%,.,2%
Cc1ccc(CCNC(=O)c2nnn(-c3cccc(C)c3)c2N)cc1,i,i,0.0%,2.8e-08,1%
CCCC(c1nnnn1Cc1cccs1)N1CCN(C2CCCC2)CC1 (stereo not drawn),i,i,1.5%,5e-09,?
COc1ccc(Cl)cc1N1C(=O)C2CCCN2C1c1ccc(F)cc1 (stereo not drawn),.,.,1.2%,.,12%
O=C(CCN1C(=O)C2C3C=CC(C3)C2C1=O)N1CCN(c2ccccc2Cl)CC1 (stereo not drawn),i,i,0.2%,6.2e-09,30%
O=C1C(Cl)=C(Nc2ccccc2O)C(=O)N1c1ccccc1,i,i,0.0%,3.3e-08,-12%
CCOc1ccc(CCNC(=O)CCc2nc(-c3ccc(OC)cc3)no2)cc1OCC,i,i,-0.4%,3e-09,9%
Cc1cccc(-n2ncc3c(N)ncnc32)c1,i,i,1.7%,1e-09,-10%
CC1=C(C(N)=O)C(c2cccc(OCc3ccccc3)c2)n2nnnc2N1 (stereo not drawn),i,i,0.1%,1.9e-08,-3%
Cc1cc(C)nc(N(C#N)CN2C(=O)c3ccccc3C2=O)n1,i,i,.,9.3e-08,.
O=C(NCCNC(=O)C(F)(F)F)c1ccncc1,i,i,-0.1%,5.6e-09,-3%
COC(=O)c1sc(NC(=O)C2CCCO2)c(C(=O)OC)c1C (stereo not drawn),i,i,-2.9%,1e-09,17%
CCC(C)(C(=O)Nc1ccc2c(c1)OCCO2)N(C(C)=O)c1ccc(C(N)=O)cc1 (stereo not drawn),i,i,1.6%,1.6e-08,.
# (continued)
SMILES,A488 fluor,Resorufin autofl,AID923,A647 autofl,TSHR agonist
COc1cc(CC(=O)Oc2ccc3c(c2)OCO3)cc(OC)c1OC,i,i,-1.6%,1e-09,1%
CC1(C)CC(N2CN(C3CCCCC3)CC2=O)CC(C)(C)N1,.,.,0.3%,.,3%
CCn1cc(Cl)c(C(=O)Nc2nc3ccccc3n2CCN2CCCCC2)n1,.,.,0.3%,.,10%
Cc1ccc(-n2ncc3c(NCc4cccnc4)ncnc32)c(C)c1,i,i,.,2e-09,.
CCn1c(SCC(=O)Nc2nonc2C)nnc1-c1ccoc1C,i,i,-0.3%,3.9e-08,7%
COC(=O)c1[nH]c2cc(C)ccc2c1NC(=O)CN1CCN(c2ccccc2OC)CC1,i,i,-1.3%,8.2e-09,2%[11.4 µM]
COc1ccc(OC)c(-c2cc(C(=O)N3CCCc4ccccc43)no2)c1,i,i,-1.1%,1e-09,?
Cn1c(=O)c2c(nc(NCCNc3nc4c(c(=O)n(C)c(=O)n4C)n3C)n2C)n(C)c1=O,i,i,1.3%[11.5 µM],1e-09,1%[11.4 µM]
Cc1ccc(NC(=O)CS(=O)CC(=O)NC(C)CCc2ccco2)cc1Cl (stereo not drawn),i,i,-0.8%,1e-09,-1%
Cc1cc(Nc2nc3ccccc3[nH]c2=O)n(-c2ccccc2)n1,i,i,0.4%,2.8e-08,?
CCN(CC)c1ccc(C2C3CCCCC3(O)CCN2CC(=O)N2CCCCC2)cc1 (stereo not drawn),i,i,-0.7%,8.1e-09,.
CCOc1ccccc1OCCCC(=O)N1CCN(S(=O)(=O)c2ccc(C)cc2)CC1,i,i,-0.3%,2.5e-08,3%
CCCc1cc(=O)oc2cc(C)cc(OCc3nn[nH]n3)c12,i,i,0.0%,1.5e-08,6%
Cc1ccc(OCCC(=O)Nc2c(C)n(C)n(-c3ccccc3)c2=O)cc1,i,i,2.0%,6.8e-09,2%
O=c1c2ccccc2ncn1Cc1ccco1,i,i,.,1e-09,.
O=C(CN1CCCC1)N1c2ccccc2Sc2ccccc21,i,i,-1.2%,1e-08,-2%
Cn1c(=O)c2c(nc(SCC(=O)Nc3ccccc3N3CCCCC3)n2C)n(C)c1=O,i,i,-0.8%,4.4e-08,?
O=S(=O)(c1ccc(Cl)cc1Br)N1CCCCC1,i,i,2.5%,1e-09,?
Cc1ccc(N2C(=O)C3ON(c4ccccc4)C(c4ccncc4)C3C2=O)cc1 (stereo not drawn),i,i,.,1e-09,.
CC1=C(C(=O)OCc2ccccc2)C(c2cccnc2)n2ncnc2N1 (stereo not drawn),i,i,2.6%,2.2e-08,1%
COC(=O)NC(CC(C)=O)c1cccc(C)c1 (stereo not drawn),.,.,2.3%[11.5 µM],.,7%[11.4 µM]
CC(C)C(NC(=O)C1CCCCC1)C(=O)Nc1ccc2c(c1)OCCO2 (stereo not drawn),i,i,-0.6%,3.1e-08,3%
CC1(C)SC2c3ccccc3C(=O)N2[C@@H]1C(=O)NCCCN1CCOCC1 (stereo partly drawn),i,i,-1.1%,1e-09,3%
Oc1ccccc1O,i,i,0.8%,7.6e-08,2%&6%
O=C(CN1C(=O)c2ccccc2C1=O)N1CCN(c2ccccc2)CC1,i,i,-1.6%,5.6e-09,9%

# Quoted at random: 7 records from the list, in no set order.
SMILES,A488 fluor,Resorufin autofl,AID923,A647 autofl,TSHR agonist
CCn1c(SCC(=O)Nc2nonc2C)nnc1-c1ccoc1C,i,i,-0.3%,3.9e-08,7%
CC1(C)CC(N2CN(C3CCCCC3)CC2=O)CC(C)(C)N1,.,.,0.3%,.,3%
O=C(CN1CCCC1)N1c2ccccc2Sc2ccccc21,i,i,-1.2%,1e-08,-2%
Cc1ccc(OCCC(=O)Nc2c(C)n(C)n(-c3ccccc3)c2=O)cc1,i,i,2.0%,6.8e-09,2%
COc1cc(CC(=O)Oc2ccc3c(c2)OCO3)cc(OC)c1OC,i,i,-1.6%,1e-09,1%
Cc1cc(Nc2nc3ccccc3[nH]c2=O)n(-c2ccccc2)n1,i,i,0.4%,2.8e-08,?
CC(C)C(NC(=O)C1CCCCC1)C(=O)Nc1ccc2c(c1)OCCO2 (stereo not drawn),i,i,-0.6%,3.1e-08,3%

# Additional records follow.
SMILES,A488 fluor,Resorufin autofl,AID923,A647 autofl,TSHR agonist
C(=N\n1cnnc1)/c1ccc(N2CCOCC2)s1,i,i,18%,2.1e-08,-3%[11.4 µM]
COCc1nc(-c2ccc(-c3ccc(OC)cc3)nc2OC)no1,.,.,9.0%,.,31%
CC1(C)Oc2ccc(C(=O)N3CCc4ccccc43)cc2N(CC(=O)N2CCCC2)C1=O,i,i,-3.4%,1.5e-08,-4%
CCN(CC)S(=O)(=O)c1cccc(-c2nnc(SC(C)C#N)n2Cc2ccccc2)c1 (stereo not drawn),i,i,-0.3%,1.7e-08,?
Cc1nc2ccc(NC3=NCCCCC3)cc2s1,i,i,2.6%,1e-09,1%
CC1(C)[C@@H](OC(=O)CCC(=O)O)CC[C@@]2(C)[C@H]1CC[C@@]1(C)[C@H]2C(=O)C=C2[C@H]3C[C@](C)(C(=O)O)CC[C@]3(C)CC[C@@]21C,i,i,-0.3%[25.7 µM],4e-09,12%[25.6 µM]

# From PubChem
